# SARS PLP yeast – qHTS of Yeast-based Assay for SARS-CoV PLP; 330,000 tested, 0.19% active; S. cerevisiae expressing SARS-CoV PLpro, growth rescue; control for the full effect not named in the record; AID 485353, 2010; Potency, µM (doses to about 32.9 µM), without a hit: at the highest dose activity, positive = growth rescue; also: 0% is about no effect; nearly all actives have a fitted effect of over 55% in size; growth read by luminescence after 48 h
# RE007 growth inh – qHTS Assay for Inhibitors of the HIV-1 protein Vpr; S. pombe RE007 Vpr strain, BacTiter-Glo ATP luminescence, 24 h; control for the full effect not named in the record; Potency, µM (series often up to 92.2 µM), without a hit: at the highest dose activity change, negative = less growth; 360,000 tested, 0.21% active; AID 651644, 2012; active = well fitted falling curve with a large enough effect; inconclusive = small, poorly fitted or top-dose-only effect; inactive = no such curve, though single readings can be large or run the other way;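 also: % is scaled to controls: 0 for no effect and ±100 for the full control effect; nearly all actives have a fitted effect of over 50% in size; the assay follows cell death caused by Vpr and the record does not say whether a fall means rescue or toxicity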
#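 Fission yeast RE007 carrying one integrated HIV-1 vpr copy, seeded at OD 0.01 in PMG+AL medium with 23 nL pinned compound. Grown 24 h at 30 degrees; viability read by BacTiter-Glo luminescence after 5 min.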
# Marburg entry inh – qHTS for inhibitors of binding or entry into cells for Marburg Virus. Marburg virus pseudotyped entry inhibition, cell reporter; control for the full effect not named in the record; about a third of the inactives were read at about 46 µM. Potency, µM (doses to about 37.8 µM), inactives show top-dose activity change, negative = inhibition, actives largely listed as inhibitors. 300,000 tested, 1.8% active. AID 540276, 2011; active = well fitted inhibition curve with a large enough effect; inconclusive = small, poorly fitted or top-dose-only effect, or effect the other way; inactive = flat fitted curve, though single readings scatter; tested in HEK293 cells; about a fifth of its hits are not listed in these tables; also: % is scaled to controls: 0 for no effect and ±100 for the full control effect; luciferase read-out
# Lassa entry inh – qHTS for Inhibitors of binding or entry into cells for Lassa Virus. Lassa virus pseudotype entry inhibition, cell reporter; control for the full effect not named in the record. Potency, µM (titrated, usually from 37.9 µM), inactives show at the highest dose activity change, negative = inhibition, usual class: inhibitors. 300,000 tested, 1.2% active; active means well fitted inhibition curve with a large enough effect; inconclusive means small, poorly fitted or top-dose-only effect, or effect the other way; inactive means flat fitted curve, though single readings scatter; tested in HEK293 cells; also: % is scaled to controls: 0 for no effect and ±100 for the full control effect; nearly all actives have a fitted effect of over 50% in size; luciferase read-out
# Cruzain inh noDet – qHTS Assay for Promiscuous and Specific Inhibitors of Cruzain (without detergent) | Cruzipain (Trypanosoma cruzi), P25779 | purified cruzain, Z-FR-AMC fluorescence, no detergent | Potency, µM, without a hit: max response, negative = inhibition, hits mostly inhibitors | 200,000 tested, 2.3% active | AID 1476, 2009; active = well fitted curve in the direction sought with a large enough effect; inconclusive = small, poorly fitted or top-dose-only effect, or another doubt; inactive = no such curve, though single readings can be large; an effect the other way counts as inactive or inconclusive;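 also: plate controls were enzyme without inhibitor for no effect and buffer without enzyme for full effect; nearly all actives have a fitted effect of over 40% in size; top concentration of the series not given in the record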
# Target sequence (P25779 123-467 limits assumed): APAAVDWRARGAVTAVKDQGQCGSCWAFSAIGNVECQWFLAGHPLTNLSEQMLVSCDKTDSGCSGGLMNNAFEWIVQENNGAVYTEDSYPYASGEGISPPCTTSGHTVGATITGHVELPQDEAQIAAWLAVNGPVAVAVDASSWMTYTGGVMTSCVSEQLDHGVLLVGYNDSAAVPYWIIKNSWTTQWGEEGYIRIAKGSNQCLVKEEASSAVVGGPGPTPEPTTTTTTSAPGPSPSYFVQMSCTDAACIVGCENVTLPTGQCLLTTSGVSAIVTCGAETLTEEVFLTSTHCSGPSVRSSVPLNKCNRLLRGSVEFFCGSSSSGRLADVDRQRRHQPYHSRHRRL
#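 Detergent-free condition (0.00005% Triton X-100) in acetate buffer pH 5.5 with DTT. 1.5 nM enzyme and compound were pre-mixed 15 min, then 2 uM Z-FR-AMC substrate added; reaction progress from fluorescence change between first and third reads (60 s).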
# 2A StopGo – High Throughput Screening for Foot and Mouth Disease Virus Antivirals; human cells with a luciferase reporter of 2A StopGo recoding; control for the full effect not named in the record; Potency, µM (doses to about 57.9 µM), for the others: at the highest dose signal change, negative = less light; 410,000 tested, 1.2% active; active = well fitted falling curve with a large enough effect; inconclusive = small, poorly fitted or top-dose-only effect; inactive = no such curve, though single readings can be large or run the other way; tested in HEK293T cells; also: % is scaled to controls: 0 for no effect and ±100 for the full control effect; nearly all actives have a fitted effect of over 45% in size; luciferase light after 4 h
# Cruzain inh Det – qHTS Assay for Promiscuous and Specific Inhibitors of Cruzain (with detergent); Cruzipain (Trypanosoma cruzi), P25779; purified cruzain, Z-FR-AMC fluorescence, 0.01% Triton; Potency, µM, inactives show max response, negative = inhibition, hits mostly inhibitors; 200,000 tested, 0.43% active; active = well fitted curve in the direction sought with a large enough effect; inconclusive = small, poorly fitted or top-dose-only effect, or another doubt; inactive = no such curve, though single readings can be large; an effect the other way counts as inactive or inconclusive;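 also: plate controls were neutral wells for no effect and buffer without enzyme for full effect; nearly all actives have a fitted effect of over 40% in size; top concentration of the series not given in the record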
#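 Sodium acetate buffer (100 mM, pH 5.5) containing 5 mM DTT and 0.01% Triton X-100 hosted 1.5 nM cruzain and test compound for 15 min at room temperature. Cleavage of 2 uM Z-FR-AMC was then tracked by fluorescence.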
# NS1 function inh – qHTS Assay for Inhibitors of Influenza NS1 Protein Function | AID 2326, 2010 | Potency, µM (titrated, usually from 46.1 µM), for the others: top-dose activity, positive = more growth | S. cerevisiae slowed by influenza A NS1, growth recovery by OD600 | 270,000 tested, 0.4% active; also: actives are rising curves; nearly all actives have a fitted effect of over 50% in size
#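 A cell-based growth assay was used: compounds that relieve NS1-induced slow growth of budding yeast raise OD600. Assay medium was yeast nitrogen base with ammonium sulphate and -URA supplement, pH 6.0, with 2% galactose.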
# * marks the source's active call; other numbers are inactive results; u = inconclusive; x = not tested or not shown; & = joins results of further samples; [ ] = another dose, or the depositor's remark. Unless noted, calls follow the shape of the dose curve; as a rule, active means well fitted rising curve with a large enough effect; inconclusive means small, poorly fitted or top-dose-only effect; inactive means no such curve, though single readings can be large or run the other way. Potency is read from the fitted curve at half-maximal effect.
SMILES,SARS PLP yeast,RE007 growth inh,Marburg entry inh,Lassa entry inh,Cruzain inh noDet,2A StopGo,Cruzain inh Det,NS1 function inh
CCOC(=O)c1c(C)[nH]c(C)c1C(=O)COC(=O)c1sccc1C,-7%,2%,5%,3%,x,-2%,x,x
COc1ccc(S(=O)(=O)N2CCN(Cc3ccc4c(c3)OCO4)CC2)cc1C,x,x,x,17%[46.1 µM],4%,29%,-1.8%,x
C/C(=N\NC(=O)c1nnn(-c2nonc2N)c1CN1CCC(C)CC1)c1cccc(Br)c1,-6%,-1%,x,x,x,-16%,x,8%
COc1cc(SC)ccc1C(=O)Nc1ccc2c(c1)CCN2S(C)(=O)=O,6%,2%,5%,0%,u,x,-14%,4%
O=C(NC1CCCCC1)C(c1cccs1)N(CC1CCCO1)C(=O)c1csnn1 (stereo not drawn),0%,5%,8%,-9%,6%,67%[activator],3.8%,2%
Cc1cccc2cc(C#N)c(NCCCNS(=O)(=O)c3ccc(Cl)cc3)nc12,-2%,-7%,x,x,x,u,x,-5%
COc1ccc2nc(C)[nH]c(=O)c2c1,-9%,0%,-2%,7%,7%,-12%,-0.6%,-11%
COc1ccc(Cl)cc1NC(=O)[C@H]1O[C@@H]2OC(C)(C)O[C@@H]2[C@H]2OC(C)(C)O[C@H]21,x,x,-10%[46.1 µM],-4%[46.1 µM],u,-13%,-6.2%,x
O=C(Cc1c[nH]c2ccccc12)Nc1nccs1,-3%,-12%,-7%[46.1 µM],9%,-6%,10%,6.2%,-11%
N#CC1=C(N)Oc2cc(N)ccc2C1c1ccc(F)cc1F (stereo not drawn),-5%,-8%,u,-30%[46.1 µM],x,-11%,x,u
CCc1nnc(NC(=O)CCC(=O)N2CCN(Cc3ccc(F)cc3)CC2)s1,1%,13%,x,x,x,-25%,x,8%
COc1ccc(C(=O)N2CCN(C3CCCCC3)CC2)cc1OC,0%,2%,x,x,x,0%,x,0%
CC(Sc1nnc(C2CC2)n1C)C(=O)Nc1ccc(N2CCOCC2)cc1 (stereo not drawn),-2%,-3%,22%,12%,x,9%,x,x
COc1ccc(CN2CCOC2=O)cc1OC,0%,3%,1%,-15%,x,-3%,x,4%
COc1ccc(Cn2ccc3nc(C)c(C(=O)NCc4ccc(C)cc4)cc3c2=O)cc1,x,x,x,-9%[46.1 µM],u,u,-3.5%,x
COc1ccc(NS(=O)(=O)c2ccc3oc4ccccc4c3c2)cn1,-22%,14%,16%,-10%,-19%,x,-9.7%,x
Fc1ccc(N2CCN(C3CCC(c4ccccc4)CC3)CC2)cc1 (stereo not drawn),-16%,-10%,x,x,x,-14%,x,-9%
O=C(Nc1nnc(C2CC2)s1)c1cc(-c2ccccc2)nn1-c1ccccc1,-1%,-7%,-9%,u,u,u,-3.4%,7%
COc1ccc(-n2cnnc2SCC(=O)N(C)c2ccccc2)cc1,-1%,-2%,u,u,x,14%,x,17%
CC1(C)CN(c2ccc(F)cc2)C1=O,-1%,3%,u,-2%,x,-8%,x,x
Cc1ccc(CNC(=O)c2cnc3c(-c4ccc(F)cc4)c(C)nn3c2C)o1,x,x,x,-25%[46.1 µM],u,-15%,-2.4%,x
COc1cccc(C2CC(c3ccccc3)=NN2S(=O)(=O)c2ccccc2)c1OC (stereo not drawn),-1%,2%,u,-22%,x,33%[activator],x,24%
NC(=O)CSc1nnc(-c2ccco2)n1N,7%,-5%,-3%,20%,0%,-14%,3.1%,-3%
COc1ccccc1OCC(=O)Nc1ccc(S(=O)(=O)Nc2nc(C)cc(C)n2)cc1,2%,-1%,0%,1%,-5%,x,-0.9%,-11%
C=CCOC(=O)c1ccc(-n2cncn2)nc1,3%,-2%,15%,u,-6%,43%[activator],3.1%,-3%
COc1ccc2[nH]c(C(=O)NCc3ccc4c(c3)OCO4)cc2c1,-1%,8%,u,u,x,-14%,x,-2%
O=C(C1COc2ccccc2O1)N1CCN(c2nc3ccc([N+](=O)[O-])cc3s2)CC1 (stereo not drawn),0%,18%,17%,11%,x,-4%,x,x
COc1ccc(Cl)cc1NC(=O)CCS(=O)(=O)c1ccc(Br)cc1,-1%,-1%,13%[46.1 µM],u,x,22%,x,-6%
Cc1ccc(NC(=O)C(=O)NCC(c2cccnc2)N2CCN(C)CC2)cc1F (stereo not drawn),x,x,x,u,0%,-20%,-1.7%,x
CCCS(=O)(=O)N1CCN(C(=O)c2ccccc2F)CC1,7%,13%,-3%,1%,-5%,-11%,1.3%,-28%
Cc1c2cnn(-c3ccccc3)c(=O)c2c(C)n1CCCC(=O)Nc1ccc(F)cc1F,x,x,-3%[46.1 µM],1%[46.1 µM],4%,-20%,-4.9%,x
COc1ccccc1N(C)S(=O)(=O)c1ccc(Cl)c(C(=O)N2CCC2)c1,2%,25%,-13%,-28%[46.1 µM],x,8%,x,x
COc1ccc(C(CNc2ccc(C(F)(F)F)cn2)N(C)C)cc1OC (stereo not drawn),-2%,2%,u,u,x,-13%,x,-12%
O=S1(=O)CCC(N=Cc2cc(Br)ccc2O)C1 (stereo not drawn),1%,8%,0%[46.1 µM],-23%,-10%,-28%,-0.7%,14%
Cc1cc(-c2nnc3sc(C4CCCCC4)nn23)n[nH]1,-5%,1%,-22%,-19%,-9%,-4%,1.4%,-1%
CC(=O)Nc1ccc(N(C(=O)Cc2c[nH]c3ccccc23)C(C(=O)NC2CCCCC2)c2ccco2)cc1 (stereo not drawn),2%,12%,-16%,5.8µM*,10%,10%,-3.8%,25%
COCCSc1ccccc1C(=O)Nc1cc(C)on1,4%,20%,-9%,10%,-9%,x,3.3%,-39%
Cc1cccc(N2CCN(C(=O)c3ccc4c(c3)CCN4S(=O)(=O)c3ccccc3)CC2)c1C,x,x,-27%[46.1 µM],u,u,-18%,-3.3%,x
CCCn1nc(NC(=O)c2ccccn2)c2cc3cc(C)ccc3nc21,5%,-4%,7%,11%,u,17%,1.0%,16%
CNC(=S)NNC(=O)c1sc(-c2cc(C)on2)nc1C,0%,-11%,22%,-17%,x,2%,x,-4%
CC(=O)O[C@H]1CC[C@H]2[C@@H]3CCc4cc(O)ccc4[C@H]3CC[C@]12C,-1%,12%,12%,0%,u,-18%,-13%,-3%
CCOC(=O)C1=C(C)c2ccccc2OC1(C(=O)OCC)C(C)C (stereo not drawn),-27%,11%,x,x,3%,-20%,-0.6%,x
CCOc1ccc(N(C)C(CNS(=O)(=O)c2ccccc2)c2ccccc2)cc1 (stereo not drawn),x,x,u,u,7%,-20%,-11%,x
C/C(=N\NC(=O)c1c(Cl)c(C)nn1C)c1ccc(NC(=O)C2CCC2)cc1,-2%,-8%,-24%[46.1 µM],-14%[46.1 µM],x,-14%,x,-1%
N#C/C(=C/C1=C(N2CCOCC2)C(=C/c2ccc(Cl)cc2)/CC1)C(=O)Nc1ccccc1F,x,-7%,0%,14%[46.1 µM],x,u,x,x
CN1CCN(NC(=S)Nc2ccc(Oc3ccccc3)cc2)CC1,0%,4%,u,-4%[46.1 µM],x,u,x,-3%
N#CCCN(C(=O)COC(=O)CNC(=O)c1ccc(-c2ccccc2)cc1)c1ccc(F)cc1,0%,31%,22%,-1%,x,-3%,x,x
CN1CCC(N(C)C(=O)c2cccc(S(=O)(=O)N3CCOCC3)c2)CC1,-2%,2%,u,-3%,x,-10%,x,x
NC1=NC(=O)C(CC(=O)NCc2ccccc2)S1 (stereo not drawn),-12%,-27%,8%,u,x,-1%,x,x
Cc1ccc2c(C)c(C(=O)N3CCN(Cc4ccccn4)CC3)oc2c1C,10%,2%,x,x,x,7%,x,-11%
Cc1ccc(C(=O)NN2C(=O)/C(=C/c3cccn3C)SC2=S)cc1,-9%,-4%,u,u,u,-13%,-9.5%,2%
C=Cc1ccc(Cn2c(=O)cc(C)c3c(C)nn(C)c32)cc1,x,x,x,u,u,u,0.7%,x
CC(=O)c1cccc(OCc2cc(C(=O)NCCC3=CCCCC3)no2)c1,-2%,-12%,x,x,x,-3%,x,-15%
CCN(CC)CCNC(=O)c1cc([N+](=O)[O-])c(N(C)C)cc1OC,3%,u,3%[46.1 µM],-1%,x,-11%,x,-1%
Cc1nc2c(-c3ccccc3)c(C)nn2c(C)c1CCC(=O)N1CCN(c2ccc(F)cc2)CC1,x,x,-22%[46.1 µM],-1%[46.1 µM],u,-26%,1.0%,x
O=C(O)c1c[nH]c2c([N+](=O)[O-])cccc2c1=O,x,-30%,-20%,1%,x,-5%,x,x
CCN1CCN(CC(=O)Nc2nc3ccc(C)cc3s2)CC1,6%,-9%,x,x,x,14%,x,8%
O=C(CSc1nnc(CN2CCCCCC2=O)n1-c1ccccn1)NCC(F)(F)F,3%,14%,8%,u,-4%,14%,7.6%,1%
COc1ccc(NS(=O)(=O)c2ccc3c(c2)oc(=O)n3C)cc1Cl,-1%,-2%,-9%[46.1 µM],-16%[46.1 µM],-12%,-10%&13%,-4.2%,0%
COc1ccc(-c2csc(Nc3ccccc3)[n+]2CC(O)c2ccc([N+](=O)[O-])cc2)cc1 (stereo not drawn),-1%,1%,x,x,x,u,x,6%
Cc1ccc(C)c(Cn2c(=O)n(Cc3ccccc3)c(=O)c3c(C)c(C)sc32)c1,x,x,20%[46.1 µM],7%[46.1 µM],3%,-24%,-2.4%,x

# Screens deposited in PubChem BioAssay by National Center for Advancing Translational Sciences (NCATS).
